Screening results from PubChem BioAssay.
Sa RN4220 lethal – kills Staphylococcus aureus RN4220; inhibition, % (test concentration not listed); hit rate 0.33% among 330,000; AID 1259311; S. aureus RN4220 growth, OD600, 16 h;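 active means z-score of -3 or lower and OD600 up to 0.18 on both plates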;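 further: plate controls were untreated cells for no effect and reference antibiotic for full effect; stock transfer was 100 nL into about 80 µL; one replicate is shown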
Sa ugtP lethal – kills S. aureus RN4220 lacking UgtP; S. aureus RN4220 ugtP deletion, OD600 growth, 16 h; some inactives read as strong as hits; growth inhibition, % (no concentration beside the values); hit rate 0.54% among 330,000; AID 1259309;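 active means z-score under -3 and OD600 up to 0.15 on both plates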;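 further: plate controls were untreated wells for no effect and antibiotic for full effect; wells of about 80 µL received 100 nL stock; the first replicate is given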
BJeLR viability – BJeLR cell viability loss. inhibition, % (no concentration beside the values). BJeLR (HRASV12) viability, CellTiter-Glo ATP luminescence, 48 h; reference of the scale not given here. hit rate 0.17% among 300,000. AID 1554;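 active means replicate mean above 50%; inconclusive means above 50% but judged a plate artefact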;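 further: 50 nL library stock added to about 25 µL; numbers are from one replicate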
Bead autofluor – flagged as autofluorescent in microsphere protease counterscreen | compound autofluorescence counterscreen, microsphere flow cytometry; hits give high values | fluorescence intensity (concentration not given with the values) | hit rate 3.1% among 360,000 | AID 624483;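 active means at least 3 SD above the mean of all compounds, about 16000 in these data; inconclusive means too few beads counted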;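 further: 100 nL of 1 mM stock went into each well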
Mtb hypoxia inh – inhibitors of hypoxia-regulated fluorescent reporter in Mycobacterium tuberculosis; M. tuberculosis hypoxia-regulated fluorescent reporter, fluorescence; fluorescence inhibition, % (test concentration not listed); hit rate 0.1% among 300,000; AID 1159583;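 active means 35 to 45% if threefold the growth effect, above 45% if 1.5-fold the growth effect; inactive means the rest, general growth blockers included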;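 further: wells of about 50 µL received 100 nL stock; 0% = vehicle wells and 100% = reference inhibitor wells; whole bacteria with a GFP reporter of the hypoxia response; strong numbers were not always called active; many hits fall short of the cut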
PrP UTR inh – suppresses PrP 5' UTR mRNA reporter expression | AID 488862 | inhibition, % (test concentration not listed) | hit rate 0.35% among 340,000 | cell-based PrP 5' UTR mRNA reporter, plate reader;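 active means every replicate at 50% or more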;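 further: 0 = median of the neutral control wells; tested in H4 reporter cells; numbers are from one replicate; inactives centre near -14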
Mtb hypoxia inh growth – recorded beside Mtb hypoxia inh, whose call it bears; growth inhibition, %; measured here: M. tuberculosis growth (absorbance);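 0% = vehicle and 100% = reference antibiotic; read after six days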
The depositor's hits bear a star; ? = inconclusive; nt = no result given.

Preview, two compounds:
SMILES	Sa RN4220 lethal	Sa ugtP lethal	BJeLR viability	Bead autofluor	Mtb hypoxia inh	Mtb hypoxia inh growth	PrP UTR inh
Cc1noc(C)c1NC(=O)N(C)CC1Oc2ccc(NS(=O)(=O)c3cn(C)cn3)cc2C(=O)N(C(C)CO)CC1C (centres undefined)	7.7	1	nt	nt	12	7	nt
COc1cccc(N(CC(=O)NCCSc2ccc(Cl)cc2)S(C)(=O)=O)c1	2.9	-9	-5	10133	11	2	-26

Results, previewed entries included:
SMILES	Sa RN4220 lethal	Sa ugtP lethal	BJeLR viability	Bead autofluor	Mtb hypoxia inh	Mtb hypoxia inh growth	PrP UTR inh
Cc1noc(C)c1NC(=O)N(C)CC1Oc2ccc(NS(=O)(=O)c3cn(C)cn3)cc2C(=O)N(C(C)CO)CC1C (centres undefined)	7.7	1	nt	nt	12	7	nt
COc1cccc(N(CC(=O)NCCSc2ccc(Cl)cc2)S(C)(=O)=O)c1	2.9	-9	-5	10133	11	2	-26
CCN(CC)C(=O)Oc1ccc2ccccc2c1Cl	5.9	23	3	2249	5	7	-73
COc1ccccc1OC(C)C(=O)Nc1ccc(S(=O)(=O)N2CCN(C)CC2)cc1 (centres undefined)	0.6	-3	6	6075	20	10	-16
COc1ccc(-c2noc(N3CCC(C(=O)NCCCN4CCCC(C)C4)CC3)n2)cc1 (centres undefined)	1.7	-1	13	5730	2	-1	-22
CCc1ccccc1NC(=O)CN(C)C(=O)c1cc(C2CC2)nc2c1cnn2C(C)C	1.4	-1	nt	3996	5	10	-7
CS(=O)(=O)Nc1ccccc1C(=O)O	7.1	5	-2	6490	4	8	-9
CCc1ccc(C2c3[nH]c4ccccc4c3CCN2C(=O)CNC(N)=O)cc1 (centres undefined)	-9.4	6	2	3230	3	3	-20
CCCc1ccc2c(N)c(C#N)sc2n1	6.3	-8	0	6390	5	13	-24
CCN(CC)c1ccc(C(=O)NNC(=O)CCNC(=O)c2ccccc2)cc1	0.6	-3	nt	8522	-11	-5	-18
Cc1ccc(C(=O)N2CCN(S(=O)(=O)c3ccccc3)CC2)s1	-2.1	2	-4	?	-9	3	-12
O=[N+]([O-])c1ccc(Cl)c(/C=N/n2c(C3CCCCC3)n[nH]c2=S)c1	nt	nt	0	8809	nt	nt	-4
Nc1ccc(C(=O)NN=C/C=C/c2ccc([N+](=O)[O-])cc2)cc1	4.7	-9	nt	nt	12	7	nt
COc1ccc(C2C3=C(CC(C)(C)CC3=O)Oc3ncn4nc(-c5cccnc5)nc4c32)cc1 (centres undefined)	-1.0	-5	0	4544	14	2	1
O=[N+]([O-])c1ccc(Cl)cc1N1CCCC1	11	4	-7	4164	15	3	-86
Cc1c(Cl)cnc(NC(=O)COC(=O)c2ccc3ncsc3c2)c1Cl	9.3	-17	-8	2109	9	2	-24
CC(=O)c1c(C)[nH]c(C(=O)NCCC2=CCCCC2)c1C	2.7	-4	4	4526	nt	nt	-82
O=C(C1CCCO1)N1CCN(S(=O)(=O)c2ccc(Cl)cc2)CC1 (centres undefined)	5.9	2	3	5359	5	-5	-24
CCOc1nc(Nc2ccc(Cl)cc2)nc(OCC)n1	-2.7	7	0	4214	12	11	-14
CN(C)c1ccc(C=NNC(=O)CNC(=O)/C=C/c2ccccc2)cc1	-3.3	9	nt	nt	9	3	nt
CC(C)(CO)NS(=O)(=O)c1ccc2c(c1)C(=NO)c1cc(S(=O)(=O)NC(C)(C)CO)ccc1-2	4.0	9	3	4242	4	3	-15
Cc1ccc(Cl)cc1N(CC(=O)N1CCOCC1)S(C)(=O)=O	5.4	5	-5	3820	11	0	-21
COC(=O)C1=C(C(=O)OC)[C@@H]2N(C)c3ccc(OC)cc3[C@@]23C[C@@H](C(=O)OC)N(S(=O)(=O)c2ccc(OC)cc2)C3=N1	nt	nt	1	3980	nt	nt	3
CC(C)c1ccc(NS(=O)(=O)c2ccc(-n3cccn3)cc2)cc1	1.5	-5	4	5719	2	2	-30
O=C(NN=CC1CC=CCC1)c1ccccc1O (centres undefined)	9.1	4	nt	nt	7	5	nt
O=[N+]([O-])c1ccccc1/C=C/C=Nn1c(-c2ccccc2)n[nH]c1=S	15	-2	nt	nt	-1	-3	nt
COc1ccccc1/C=C/C=Nn1c(C)nnc1C	-1.1	0	nt	nt	-1	2	nt
CCOC(=O)C1(Cc2ccccc2)CCCN(C(=O)C=C(C)C)C1 (centres undefined)	6.3	8	-1	3633	0	8	-47
FC(F)(F)c1ccc(C2C3CN(Cc4ccc(-c5ccccc5)cc4)C(c4ccccc4)C34CC2(c2cccnc2)C4)cc1 (centres undefined)	5.0	0	nt	nt	-3	2	nt
COc1ccc(-c2n(CC(=O)OC3CC(C)CCC3C(C)C)c3ccccc3[n+]2C)cc1 (centres undefined)	101*	101*	12	2475	nt	nt	-19
CCN1CCN(c2cc(=O)n(-c3cc(Cl)ccc3C)c(=O)[nH]2)CC1	1.7	7	6	11321	8	12	-7
N#CCCn1cc(/C=C/C(=O)O)c(-c2ccc(F)cc2)n1	3.6	5	-2	4603	8	7	-24
O=C(O)CC(CNC(=O)C1CCCN1C(=O)OCc1ccccc1)c1ccccc1 (centres undefined)	0.8	8	4	3710	4	1	nt
O=C(N/C(=C\c1cccc(Br)c1)C(=O)N1CCCCC1)c1ccco1	0.4	3	-8	3251	8	-6	-20
Cc1ccc(S(=O)(=O)Cn2nnnc2CN2CCCC3(CCCCC3)C2)cc1	9.6	-19	-2	8266	7	8	-14
Nc1c(C(=O)NCc2ccc3c(c2)OCO3)nnn1Cc1ccc(Br)cc1	2.5	7	0	5142	8	5	-16
CCCCN(CC)c1nc(N)c(C#N)c(CC#N)c1C#N	6.7	9	-23	10159	15	9	-25
COc1cc(CNCc2ccccc2C(F)(F)F)cc(OC)c1	8.6	0	0	3229	7	1	-20
COc1ccc(-n2c(COc3ccccc3)nnc2SCC(N)=O)cc1	-1.5	0	6	8443	5	-4	-20
O=C(c1ccc2c(c1)N(Cc1ccc(F)cc1)C(=O)c1ccccc1S2(=O)=O)N1CCN(c2ccccn2)CC1	-0.6	1	-6	2579	-10	5	-5
Cc1nc2[nH]c(=S)[nH]c(=O)c2nc1C	2.1	-1	nt	3472	6	-9	-11
CCCc1nnc2n1N=C(c1ccc(-c3cc(Cl)ccc3Cl)o1)CS2	6.3	0	nt	nt	2	2	nt
Cc1ccc(NC(=O)c2cn(-c3cccc(C)n3)cn2)cc1	3.3	-6	-5	2346	nt	nt	-76
O=C(COC(=O)c1cccc(Br)c1)NC(=O)NC1CCCC1	5.7	11	nt	nt	-5	-7	-18
C=CCNc1ncnc2c1[nH]c1ccc(C)cc12	9.9	8	0	8158	7	-1	-67
COc1ccccc1C(=O)Nc1ccnn1C1CCN(Cc2cnn(C)c2)CC1	-5.2	-6	4	5150	-2	-3	-4
COc1ccc(NC(=O)CCc2nnc3ccc(NCc4ccco4)nn23)cc1OC	2.9	2	-7	3900	-11	-9	3
COc1ccc(C=NNc2ncnc3sc4c(c23)CCCC4)cc1O	2.2	15	nt	nt	2	4	nt
O=C(NCc1ccc(C(F)(F)F)cc1)c1ccc2c(c1)S(=O)(=O)c1ccccc1C2=O	6.2	-6	-5	4076	3	6	-14
COc1ccc(N(C(C)C(=O)NN=C2CCCC2)S(C)(=O)=O)cc1 (centres undefined)	4.1	7	-3	2657	9	-1	-18
CCC(C)C(=O)Nc1nc(-c2ccc3c(c2)NC(=O)CO3)cs1 (centres undefined)	-3.6	-6	3	3775	0	13	-16
Cn1cccc1CC(=O)N/N=C\c1ccccc1	nt	nt	-13	3468	nt	nt	-13
CN1CCC(=O)N(C(CN=[N+]=[N-])Cc2ccccc2)CC1 (centres undefined)	7.5	11	nt	nt	2	10	nt
O=C(c1cc(C2CC2)nn1-c1ccccc1)N1CCN(c2ccccc2O)CC1	9.7	-1	nt	3486	2	4	5
CCn1c(=O)c(C(=O)CN2CCCc3ccccc32)c(N)n(Cc2ccccc2)c1=O	-10	-12	17	32189*	-4	1	-21
Cc1ccc2nc(N(CCCN(C)C)C(=O)CCc3ccccc3)sc2c1	-6.3	34	4	2171	8	4	-6
O=C(CCNC(=O)c1ccc(Br)o1)NCc1ccccc1Cl	6.5	6	0	9771	4	8	nt
O=C(Nc1cccnc1)c1cccc(NC(=O)c2ccco2)c1	3.3	7	0	2554	10	8	-8
O=c1[nH]c2ccc(S(=O)(=O)Nc3ccc(Cl)cc3)cc2o1	-6.3	24	0	6930	7	15	-13
COc1ccc(NC(=O)CCS(=O)(=O)c2cccc3nonc23)cc1	8.6	6	2	3336	12	16	15

Other results follow:
SMILES	Sa RN4220 lethal	Sa ugtP lethal	BJeLR viability	Bead autofluor	Mtb hypoxia inh	Mtb hypoxia inh growth	PrP UTR inh
CCc1cc(=O)oc2cc(OC(=O)c3ccco3)ccc12	8.5	-2	1	5562	2	-1	-15
O=C(CCC(=O)N1CCOc2ccc(Cl)cc21)NCCN1CCOCC1	6.4	4	-14	5836	-1	-2	-13
O=C(COC(=O)Cn1c(C(F)(F)F)nc2ccccc21)Nc1ccc2c(c1)OCCO2	28	21	-8	2704	-3	-7	-6
COc1ccc(C2CC(c3cccs3)=NN2C(=O)CSc2nc(=O)n3ccc(C)cc3n2)cc1 (centres undefined)	-1.6	-2	12	5742	11	8	-14
N#C/C(=C\c1cccnc1)C(=O)NC1CCCCC1	6.1	-1	-6	8478	19	5	4
CCCC(=O)N1CCN(c2ccc(NC(=O)c3cccs3)cc2)CC1	4.0	2	5	3322	3	12	-20
COc1ccccc1C(=O)NNC(=O)C1CCN(C(=O)OC(C)(C)C)CC1	1.9	4	0	6279	8	-5	-10
COc1ccc(CC(=O)NCc2nnc(SCC(=O)Nc3ccccc3)n2C)cc1	0.0	12	6	3024	-7	2	-28
CN(c1ccc(OC(=O)c2ccc(-n3cncn3)c([N+](=O)[O-])c2)cc1)S(=O)(=O)c1ccccc1	-1.5	-5	nt	6014	-10	7	-12
CCOC(=O)c1nn(-c2ccc(Cl)cc2)cc1O	5.7	1	-4	4373	2	0	-26
O=C(O)c1[nH]c2ccc([N+](=O)[O-])cc2c1-c1ccccc1	-4.3	-14	-4	3128	5	17	-1
COc1ccc(CN(C(=O)Cn2nnc(-c3ccc(C)o3)n2)C(C(=O)NCC2CCCO2)c2ccco2)cc1 (centres undefined)	-2.3	5	4	2477	-2	11	1
c1ccc(OCc2nn3c(-c4ccncc4)nnc3s2)cc1	2.7	0	10	21442*	11	12	-16
Clc1ccc2c(N/N=C/c3ccc(Br)cc3)ccnc2c1	nt	nt	6	2606	nt	nt	-19
COC(=O)C(C(=O)Nc1ccc(OC)cc1)C1CCCCCC1 (centres undefined)	-15	-4	-2	3191	6	6	2
O=C(COC(=O)/C=C/c1ccccc1)NC1CCCC1	-0.4	2	nt	5874	12	37	-15
Cc1csc(=Nc2cccnc2)n1Cc1ccco1	6.4	-4	-1	4437	11	1	-11
N#Cc1ccc(/C=C/C(=O)O)cc1	4.5	15	-1	3698	2	11	-3
COc1c(/C=N/Nc2ccc([N+](=O)[O-])cc2[N+](=O)[O-])c(C)nn1-c1ccccc1	nt	nt	38	4404	nt	nt	2
CCN1CCN(C(=O)c2ccc(OC)c(S(=O)(=O)Nc3ccc(C)cc3)c2)CC1	2.9	2	3	4032	9	5	-6
O=C(c1ccco1)N1CCN(C(c2cccs2)c2nnnn2C2CCCCC2)CC1 (centres undefined)	1.3	-7	-14	7977	-7	2	-4
COC(=O)c1ccc(COc2ccc(/C=C(\C#N)c3nc4ccccc4[nH]3)cc2OC)o1	-0.4	-23	2	12125	-20	-3	-10
O=[N+]([O-])c1ccccc1NN=Cc1ccc2c(c1)OCO2	7.9	-2	nt	nt	11	-3	nt
COc1ccc2[nH]c(=O)c(CN(C(=O)c3ccco3)C(C)C)cc2c1	3.5	13	-3	3400	-4	-3	-13
CCCc1cc(=O)n2[nH]cc(-c3ccc(Cl)cc3)c2n1	99*	99*	12	4097	-1	9	-13
CCCNC(=O)c1onc(CSc2ccccn2)c1C(=O)NCCC	3.1	3	7	3888	5	1	4
O=c1nc(N2CCCCC2)nc2n1CCO2	-1.0	-1	0	2533	nt	nt	-8
COc1ccccc1C1NC(=O)NC(C)=C1C(=O)Nc1cccc(C)c1C (centres undefined)	2.0	6	-7	5870	3	0	-11

Compound profiles (already shown). Screens in order: Sa RN4220 lethal	Sa ugtP lethal	BJeLR viability	Bead autofluor	Mtb hypoxia inh	Mtb hypoxia inh growth	PrP UTR inh
O=c1nc(N2CCCCC2)nc2n1CCO2 as listed: -1.0	-1	0	2533	nt	nt	-8
CCCc1cc(=O)n2[nH]cc(-c3ccc(Cl)cc3)c2n1 as listed: 99*	99*	12	4097	-1	9	-13
